Bioassay records as filed in PubChem BioAssay.
gsp agonist: qHTS for Agonist of gsp, the Etiologic Mutation Responsible for Fibrous Dysplasia/McCune-Albright Syndrome: qHTS; Potency, µM (series often up to 76.9 µM), inactives show top-dose activation (cAMP increase), usual class: activators; actives 0.13% (n = 340,000); gsp mutant cells, cAMP HTRF, 30 min; control for the full effect not named in the record; active = well fitted activation curve with a large enough effect; inconclusive = small, poorly fitted or top-dose-only effect, or another doubt; inactive = no such curve, though single readings can be large or run the other way; cell line not stated here;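 also: phosphodiesterase inhibitor Ro 20-1724 added with compounds to block cAMP breakdown; potency is read from the fitted curve at half-maximal effect; nearly all actives have a fitted effect of over 60% in size; about a fifth of the inactives were tested at one dose only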
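Cells stably selected in G418 were plated at 2000/well, grown 16-24 hr, then given compounds in DMSO with the PDE inhibitor […] (300 uM solution added) for 30 min at 37C; cAMP was read by HTRF.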
CtBP-E1A inh: qHTS Assay for Inhibitors of the CtBP/E1A Interaction; actives 0.49% (n = 340,000); AID 651724, 2012; AlphaScreen GST-E1A/His-CtBP binding, 1536-well; active compounds read low; control for the full effect not named in the record; activity change, % (no concentration beside the values); in the data active means activity change below about -65%; inconclusive means about -30% to -65%; inactive means above about -30%; also: % is scaled to controls: 0 for no effect and ±100 for the full control effect
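AlphaScreen with 125 nM GST-E1A and 125 nM His-CtBP (5X stocks) in Tris pH 8.0, 300 mM NaCl, BSA, Tween 20, TCEP. Compounds preincubated 2 h at 37 deg C, then glutathione donor/nickel acceptor beads added for 1 h at 37 deg C in dark.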
ClpP mod: qHTS Assay for Activators of ClpP; actives 1.9% (n = 340,000); purified B. subtilis ClpP, FRET peptide cleavage, 20 min; ATP-dependent Clp protease proteolytic subunit (Bacillus subtilis (strain 168)), P80244; AID 651965, 2013; Potency, µM (series often up to 57.5 µM), for inactives: at the highest dose activity change, negative = active; active = well fitted falling curve with a large enough effect; inconclusive = small, poorly fitted or top-dose-only effect; inactive = no such curve, though single readings can be large or run the other way; also: potency is read from the fitted curve at half-maximal effect; the source files actives as falling curves though it sought activators and does not explain the sign; nearly all actives have a fitted effect of over 65% in size; many hits overshoot -100%
Target sequence (P80244 whole entry, looked up): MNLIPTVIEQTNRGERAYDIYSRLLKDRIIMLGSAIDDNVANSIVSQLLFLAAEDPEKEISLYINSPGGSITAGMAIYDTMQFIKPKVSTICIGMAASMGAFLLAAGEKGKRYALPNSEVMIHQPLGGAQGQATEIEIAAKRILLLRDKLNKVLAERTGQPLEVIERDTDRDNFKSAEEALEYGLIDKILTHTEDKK
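ClpP 10 microg/mL final, pH 8 Tris/KCl buffer with BSA, glycerol, Tween-20; compound pinned in; FRET-FV substrate; RT 20 min; Ex320/Em430; ΔFRET vs ADEP 5.8 microM, DMSO, no enzyme.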
Sfp PPTase inh: qHTS Assay for Inhibitors of Bacillus subtilis Sfp phosphopantetheinyl transferase (PPTase); actives 3.5% (n = 310,000); Biochemical Sfp PPTase activity, qHTS; Potency, µM, inactives show max response, negative = inhibition, actives largely listed as inhibitors; active = well fitted inhibition curve with a large enough effect; inconclusive = small, poorly fitted or top-dose-only effect, or another doubt; inactive = no such curve, though single readings can be large or run the other way;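 also: the enzyme is Sfp with the accession as filed and its product quenches rhodamine fluorescence; potency is read from the fitted curve at half-maximal effect; 0% = enzyme reaction without inhibitor and -100% = no enzyme wells; top concentration of the series not given in the record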
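With Hepes-Na pH 7.6 buffer containing 10 mM MgCl2, Sfp (15 nM) modified BHQ-2-YbbR (12.5 uM) using rhodamine-CoA (5 uM). Two reads 30 minutes apart at 525/598 nm yielded each well's rate.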
Menin MLL FP FL: qHTS Assay for Inhibitors Targeting the Menin-MLL Interaction in MLL Related Leukemias: Competition With Fluorescein Labeled MLL-derived Peptide; Fluorescence polarization, fluorescein-MLL peptide displacement from menin; FP activity change, % at 61.4 µM; 290,000 tested, under 10 active; inconclusive = falling polarisation curve, or a change in total fluorescence; inactive = total fluorescence flat and polarisation flat or rising; no compound was filed as active; the % refers to the polarisation; negative = inhibition;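 also: % of control where 0% means no effect; inhibitors lower the polarisation; unlabelled MLL peptide was the positive control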
TRPV1 PAM: HTS Assay for Compounds that Act as Potentiators of the Vanilloid Receptor 1. Transient receptor potential cation channel subfamily V member 1 (Homo sapiens), Q8NER1. TRPV1-expressing cells, Fluo-8 calcium influx, capsaicin EC20 potentiation; host cell line not named in the record; control for the full effect not named in the record. potentiation, % at 8.33 µM. actives 0.02% (n = 320,000). AID 540277, 2011; active means potentiation above 80%; inconclusive means 30% to 80%; inactive means below 30%; also: 0% is about no effect
Target sequence (Q8NER1 whole entry, looked up): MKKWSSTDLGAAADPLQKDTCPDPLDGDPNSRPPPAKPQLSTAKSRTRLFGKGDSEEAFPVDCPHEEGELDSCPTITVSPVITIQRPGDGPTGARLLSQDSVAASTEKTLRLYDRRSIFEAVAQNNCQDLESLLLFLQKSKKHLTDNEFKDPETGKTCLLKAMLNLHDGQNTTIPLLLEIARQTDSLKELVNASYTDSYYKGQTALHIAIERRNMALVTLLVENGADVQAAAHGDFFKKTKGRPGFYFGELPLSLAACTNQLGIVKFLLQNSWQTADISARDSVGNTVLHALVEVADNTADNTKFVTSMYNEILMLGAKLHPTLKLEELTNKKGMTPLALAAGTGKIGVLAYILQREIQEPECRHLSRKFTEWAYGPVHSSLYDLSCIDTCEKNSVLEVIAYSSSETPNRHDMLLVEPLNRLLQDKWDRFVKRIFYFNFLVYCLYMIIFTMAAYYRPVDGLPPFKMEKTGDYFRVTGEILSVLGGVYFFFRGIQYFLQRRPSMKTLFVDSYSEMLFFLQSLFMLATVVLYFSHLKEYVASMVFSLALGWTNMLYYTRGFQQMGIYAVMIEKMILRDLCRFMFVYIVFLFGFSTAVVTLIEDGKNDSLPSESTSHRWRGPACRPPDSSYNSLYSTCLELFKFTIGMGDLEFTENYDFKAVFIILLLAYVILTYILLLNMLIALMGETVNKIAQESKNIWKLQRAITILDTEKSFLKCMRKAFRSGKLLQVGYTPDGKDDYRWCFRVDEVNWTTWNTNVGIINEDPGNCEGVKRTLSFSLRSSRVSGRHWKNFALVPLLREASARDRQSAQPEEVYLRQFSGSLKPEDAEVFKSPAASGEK
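Fluo-8 calcium influx in TRPV1-expressing cells, kinetic read (ex 480/em 520 nm). Compound added and read 3 min for agonist activity, followed by capsaicin at EC20 final and 2 min further read for enhancement.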
gsp antagonist: qHTS for Antagonists of gsp, the Etiologic Mutation Responsible for Fibrous Dysplasia/McCune-Albright Syndrome: qHTS | actives 0.4% (n = 340,000) | AID 624288, 2012 | gsp-mutant cells, cAMP HTRF, 30 min; control for the full effect not named in the record | Potency, µM (top dose mostly 76.9 µM), without a hit: at the top dose activity change, negative = inhibition, actives largely listed as inhibitors; active = falling curve of any shape with a large fitted effect; inconclusive = falling curve, mostly with a smaller effect; inactive = flat or rising curve; cell line not stated here;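 also: intracellular cAMP measured with PDE inhibitor Ro 20-1724 present during compound exposure; potency is read from the fitted curve at half-maximal effect; % is scaled to controls: 0 for no effect and ±100 for the full control effect; nearly all actives have a fitted effect of over 65% in size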
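Cells in G418 medium, seeded 16-24 h, 37C; buffer exchange to DPBS + 1 mM CaCl2, 0.5 mM MgCl2, 0.05% BSA; cpds in DMSO + […] (300 uM stock), 30 min 37C; HTRF cAMP detection.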
Active calls of the source: *; ? = inconclusive; · = no result given; & = joins results of further samples; [ ] = dose if it differs, or a comment. Outcome played no part in choosing rows; 5.3% or so of the library scored in one or more.

SMILES | gsp agonist | CtBP-E1A inh | ClpP mod | Sfp PPTase inh | Menin MLL FP FL | TRPV1 PAM | gsp antagonist
CCCCCc1cc(=O)oc2c(C(CCN3CCN(c4ccccc4)CC3)c3ccc(N(C)C)cc3)c(OC)cc(OC)c12 (stereo not drawn) | · | -28.4 | -0.9% | -1.8% | 4.1 | ? | 14.4%
O=C(O[C@@H]1[C@H](Cc2ccccc2)NS(=O)(=O)[C@H]2C[C@@H]3C=C[C@]12O3)c1ccccc1Br | 12.0% | -0.1 | -0.6% | · | · | 3.9 | -16.6%
C=CCNS(=O)(=O)c1cccc(C(C)=O)c1 | 19.9% | -3.7 | -4.4% | 9.5% | 0.9 | -2.6 | 6.1%
C=CCn1c(SCC(=O)N2CCN(c3ccc(F)cc3)CC2)nnc1-c1cccs1 | 20.9% | 0.0 | -2.6% | 5.5% | 2.4 | -20.0 | -4.5%
N=c1c(S(=O)(=O)c2ccc(Cl)cc2)cc2c(=O)n3ccccc3nc2n1C1CCCC1 | 3.8% | 12.0 | -2.2% | 0.3% | · | 6.7 | 2.2%
Cc1ccc(NC(=O)CN(C)Cc2cccs2)cc1Cl | -1.8%[15.4 µM] | 6.7 | · | 19.7% | -0.2 | -9.9 | -3.4%
CCc1cccc(NC(=O)CC2Oc3ccccc3NC2=O)c1 (stereo not drawn) | 7.8% | · | 0.3% | 11.7% | -1.8 | -8.0 | 3.2%
O=C(COc1ccc(S(=O)(=O)N2CCCC2)cc1)N1CCCC1 | -8.1%[15.4 µM] | 6.0 | · | 14.4% | 4.6 | -3.6 | 6.8%
Nc1cccc(/C=C/c2ccncc2)c1 | 1.1% | · | 2.1% | 2.6% | 0.8 | 25.0 | 5.8%
Cc1ccc(S(=O)(=O)Nc2ccc(Cl)cn2)cc1 | 5.6%[15.4 µM] | -1.9 | 1.0% | 27.5% | 0.6 | 8.8 | -9.9%
NC(=O)CSc1nnc(COc2ccccc2)n1N | -16.2% | · | 0.2% | 13.5% | 0.3 | 8.5 | 9.9%
CCC1(C)OC(=O)NN(c2ccc(C)cc2)C1(C)O (stereo not drawn) | -63.0%[inhibitor] | -12.8 | -7.7% | 2.3% | 0.9 | 23.1 | 2.3%
CCCc1nnc(NC(=O)Cn2c(=O)oc3cc(Br)ccc32)s1 | 0.1% | 31.5 | 0.9% | ? | 2.3 | 1.0 | 8.0%
O=S(=O)(c1cccs1)N1CN(Cc2cccs2)c2nc3ccccc3nc21 | -6.2% | -8.1 | -12.0% | 2.7% | 2.9 | 11.2 | -5.8%
CCOC(=O)C(NC(=O)Nc1ccc(Cl)cn1)(Oc1ccccc1)C(F)(F)F (stereo not drawn) | -3.0%[15.4 µM] | 3.9 | -0.1% | 13.7% | -0.9 | 21.1 | -0.7%
CC(=O)NC1(C(Cl)(Cl)Cl)Oc2ccccc2O1 | 21.8% | 1.6 | 0.9% | 3.9% | 1.0 | 10.3 | 9.3%
CCN(CC)c1nc2nonc2nc1N(CC)CC | -5.4% | -5.9 | 2.0% | 0.9% | -0.2 | -6.6 | 5.7%
CCOC(=O)C1CCN(C(=O)C2CCN(S(=O)(=O)N3CCCC3)CC2)CC1 | -31.8%[inhibitor] | 0.0 | -3.3% | 4.7% | 2.3 | -5.2 | 2.8%
CC(=O)CSc1ncnc2c1oc1ccccc12 | ? | -4.5 | -3.4% | 4.1% | 1.8 | 2.4 | 59.2%[activator]
CCN(CC)C(=O)c1sc(NC(=S)N2CCN(C(=O)C3CCCO3)CC2)c(C(=O)OC)c1C (stereo not drawn) | 15.4% | -1.4 | -0.5% | -16.7% | · | -1.0 | -26.7%
CN(c1cccc(NC(=O)c2ccc(Cl)c(S(=O)(=O)N3CCOCC3)c2)c1)S(C)(=O)=O | -26.0% | -9.5 | 0.8% | 6.7% | · | 7.3 | -12.7%
COc1ccc(N(CCC(=O)Nc2ccccc2F)S(=O)(=O)c2ccc(C)cc2C)cc1 | -27.2% | 6.6 | 1.8% | · | · | -20.1 | -15.0%
O=C1C2C3c4ccccc4C(c4ccccc43)C2C(=O)N1c1cccnc1 (stereo not drawn) | -23.8% | 5.5 | -1.3% | -25.2% | 0.9 | 22.1 | 6.1%
CC1CCN(C(=O)CCCC(=O)O)CC1 | -0.7% | 3.2 | 1.5% | -4.1% | 6.6 | -2.6 | -5.9%
COc1cc(CNC(=O)CCn2nc(C)c3c(C)n(-c4ccccc4)nc3c2=O)cc(OC)c1OC | -36.8%[inhibitor] | -0.4 | -0.7% | 10.5% | · | -2.9 | 1.8%
Cn1nc(-c2ccccc2)c(C#N)c1Sc1cccc(Cl)c1 | -9.9% | 3.4 | -18.4% | 0.5% | -3.4 | 11.6 | 1.5%
O=[N+]([O-])c1ccc(-c2ccc(/C=N/Nc3nc(NCc4ccccc4)nc(N4CCOCC4)n3)o2)cc1 | 12.8% | -4.4 | · | 13.5% | ? | 7.4 | -4.9%
CS(=O)(=O)c1ccc(C(=O)OCC(=O)NCc2cccs2)cc1[N+](=O)[O-] | -1.2%[15.4 µM] | -19.9 | 2.3% | · | · | · | -3.1%
Cc1ccc(C)c(S(=O)(=O)N2CCCC2CNC(=O)C(=O)NCc2ccco2)c1 (stereo not drawn) | 0.9% | -13.1 | -1.5% | · | · | 21.0 | -1.2%
O=C(CNC(=O)c1cccc([N+](=O)[O-])c1)OCCCC(=O)c1ccc(F)cc1 | ? | -6.1 | 0.2% | · | · | · | ?
COc1cc(/C=C(\C(=O)O)c2ccc(S(=O)(=O)N3CCCC3)s2)cc(OC)c1 | 4.0% | 0.3 | -2.5% | · | · | 3.0 | 1.5%
O=C(COC(=O)/C=C/c1ccco1)Nc1ccc(F)cc1Cl | -31.8%[inhibitor] | 5.3 | · | -11.1% | -1.4 | -2.1 | 8.8%
C=C(C)c1cccc(C(C)(C)NC(=O)N2CCN(c3ccc(OC)cc3)CC2)c1 | -5.6% | -2.5 | 31.6µM* | -19.0% | 4.2 | -5.1 | -4.3%
COc1ccc(C)cc1N(CC(=O)N/N=C/c1ccc2c(c1)OCO2)S(C)(=O)=O | -4.7%[15.4 µM] | 0.0 | · | 15.9% | -7.3 | -2.4 | ·
COn1c(C)c(C(C)=O)c2c3nonc3ccc21 | ? | -1.5 | -8.7% | -24.2% | -2.0 | -4.2 | 6.2%
COc1cccc(CN2c3ccc(Br)cc3C(=O)CS2(=O)=O)c1 | 20.5% | 2.3 | 1.8%&-0.3% | · | · | -12.9 | -2.7%
COCCCN1C(=O)CC(C(=O)OC)=C1C | 10.5%[15.4 µM] | 27.5 | · | 9.1% | 1.4 | 0.3 | ·
O=[N+]([O-])c1ccccc1CCc1cnc(Cl)s1 | ? | 1.0 | -0.6% | 1.9% | 0.2 | 12.0 | 13.1%
COc1ccc2sc(N(CCCN(C)C)C(=O)c3ccc(S(=O)(=O)N4CCCc5ccccc54)cc3)nc2c1 | 6.2%[15.4 µM] | -4.4 | 1.4% | · | · | ? | 4.2%
Cc1cccc(OCCn2cnc(Cl)c2Cl)c1 | -3.5%[15.4 µM] | -10.4 | · | 3.8% | 1.5 | ? | 0.8%
O=c1[nH]c(=S)[nH]c2nc(-c3cccs3)cc(C(F)(F)F)c12 | 2.3%[15.4 µM] | 3.6 | -14.6% | 6.0% | 8.2 | 4.0 | -28.4%
CC(OC(=O)c1ccco1)C(=O)NC1CCCCC1 (stereo not drawn) | 6.9% | -5.4 | 1.5% | 16.4% | 6.6 | -1.1 | 14.5%
COc1nc(N=C(N)N)nc2c(C)cccc12 | 3.4% | ? | 3.16µM* | 7.1% | 6.5 | · | 4.6%
O=C(NC1CCCCCC1)C1CCN(S(=O)(=O)c2cnc[nH]2)CC1 | ? | 0.2 | 0.9% | 5.2% | 0.7 | -2.5 | 17.1%
COc1ccc(C(=O)N2CCOC2CNC(=O)C(=O)NCc2ccc(F)cc2)cc1 (stereo not drawn) | 22.7%[15.4 µM] | 1.0 | -0.1% | 16.6% | · | 3.0 | -1.4%
Cc1nonc1NC(=O)CSc1ccccn1 | 1.7% | 2.6 | · | 7.4% | 2.9 | 14.8 | 1.2%
Cc1cc(=O)oc2ccc(OC(C)C(=O)O)cc12 (stereo not drawn) | -42.6%[inhibitor] | 11.4 | 31.6µM* | 16.6% | 0.8 | 4.4 | 3.1%
CC(=O)N(C)c1ccc(NC(=O)c2cnn(C)c2)cc1 | ? | -2.0 | -8.3% | 10.7% | 3.3 | 17.9 | 7.8%
CC(C)NC(=O)N(C)C[C@H]1Oc2ccc(NC(=O)CCN3CCOCC3)cc2C(=O)N([C@H](C)CO)C[C@@H]1C | · | 5.4 | -4.8% | · | · | · | 18.4%
CC(NC(=O)c1cc(-c2ccccn2)nc2ccc(Cl)cc12)C1CCCO1 (stereo not drawn) | -5.0% | 4.9 | -11.3% | -10.0% | · | 15.0 | -7.0%
Cc1oc(-c2ccc(Cl)cc2)nc1CS(=O)CC(=O)NCCCN1CC(C)CC(C)C1 (stereo not drawn) | ? | -0.4 | -9.7% | 12.3% | 2.0 | 2.9 | 7.9%
Cc1ccc2c(N)c(C#N)sc2n1 | -2.8% | -1.0 | -5.0% | -0.1% | -4.0 | -0.5 | -7.4%
O=C(Nc1ccc(N2CCOCC2)cc1)C1CCCN(S(=O)(=O)c2ccccc2)C1 (stereo not drawn) | 4.6% | -1.6 | -2.0% | 5.9% | 4.1 | -4.0 | -23.9%
O=C(O)/C=C/C(=O)Nc1ccccc1C(=O)Nc1ccccc1 | 0.0% | 2.7 | -5.8% | 79.4µM* | 1.4 | 7.3 | 3.3%
Cc1cc(C(=O)CN2C(=O)NC(CC(C)C)C2=O)c(C)n1-c1ccccc1F (stereo not drawn) | 1.4%[15.4 µM] | -22.4 | · | 2.9% | 3.1 | -5.7 | ·
